# UCH37 inh = blocks the human deubiquitinase UCH37; purified proteasome/UCH37, Ub-AMC cleavage fluorescence; hit rate 0.33% among 330,000; inhibition, % (no concentration beside the values); AID 588478; Q9Y5K5;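 active means mean of two replicates above 20%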;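 further: 0% = compound-free wells with enzyme and 100% = wells lacking proteasome; stock transfer was 100 nL into about 20 µL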
#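 Material: human UCH37 enzyme supplied as purified proteasome complex / Amount: 0.15 nM proteasome as dispensed / Buffer or medium: pH 7.4 Tris-HCl (50 mM) with ovalbumin, ATP-MgCl2, DTT / Times: preincubation 30 min, reaction 25 min, room temperature / Technique: AMC fluorescence from Ub-AMC cleavage, excitation 355 nm, emission 460 nm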
# B2AR ag = agonists of human beta-2 adrenergic receptor inducing internalization | P07550 | Am2.2-beta2AR cells, FAP receptor internalization, flow cytometry; reference of the scale not given here | response, % (test concentration not listed) | hit rate 0.43% among 340,000;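 active means response above a set limit, near 3 SD of response in nonfluorescent compounds, cut at about 42% in these data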;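 further: stock transfer was 100 nL into about 11 µL; a reference agonist was the positive control; negative values mostly stem from fluorescent compounds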
# Target sequence (P07550 whole entry, looked up): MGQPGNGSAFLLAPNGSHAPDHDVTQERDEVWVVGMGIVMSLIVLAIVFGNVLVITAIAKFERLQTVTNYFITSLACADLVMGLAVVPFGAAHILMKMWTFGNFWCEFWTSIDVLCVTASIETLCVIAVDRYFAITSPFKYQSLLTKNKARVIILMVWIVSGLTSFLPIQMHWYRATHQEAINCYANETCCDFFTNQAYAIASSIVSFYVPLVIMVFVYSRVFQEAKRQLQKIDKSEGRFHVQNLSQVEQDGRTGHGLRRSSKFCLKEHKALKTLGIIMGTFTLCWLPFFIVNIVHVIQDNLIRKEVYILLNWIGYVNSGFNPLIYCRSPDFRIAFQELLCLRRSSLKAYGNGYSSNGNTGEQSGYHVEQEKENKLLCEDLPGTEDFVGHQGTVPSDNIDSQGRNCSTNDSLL
# ALR inh = human ALR oxidase inhibition via reduced H2O2; P55789; purified ALR, DTT oxidation, H2O2 HRP-luminol luminescence; inhibition, % (test concentration not listed); hit rate 3.8% among 290,000; AID 485317;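 active means mean and each replicate at 75% or more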;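 further: stock transfer was 7.5 nL into about 7.5 µL; 0% = neutral wells and 100% = wells with inactivated enzyme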
# Target sequence (P55789 whole entry, looked up): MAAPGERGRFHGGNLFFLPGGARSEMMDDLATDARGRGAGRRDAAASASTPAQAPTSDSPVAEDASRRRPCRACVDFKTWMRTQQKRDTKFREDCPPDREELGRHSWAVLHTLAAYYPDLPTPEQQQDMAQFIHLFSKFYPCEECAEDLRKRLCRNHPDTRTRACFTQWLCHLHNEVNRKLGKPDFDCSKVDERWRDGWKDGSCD
# FGF22 binding = shifts melting point of recombinant human FGF22. Q9HCT0. recombinant FGF22 thermal shift, SYPRO orange fluorescence; percent of sucrose octasulfate shift, DMSO zero. calls only at 9.99 µM. hit rate 1.5% among 340,000;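 active means melting point raised past a set limit in the mean and every replicate; three in four hits are not shown here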
# Target sequence (Q9HCT0 whole entry, looked up): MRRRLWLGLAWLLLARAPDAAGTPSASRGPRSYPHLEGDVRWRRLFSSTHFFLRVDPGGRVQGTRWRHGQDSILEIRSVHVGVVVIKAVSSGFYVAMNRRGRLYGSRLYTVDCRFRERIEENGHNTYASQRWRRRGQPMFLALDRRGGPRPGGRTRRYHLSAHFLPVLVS
# Ecoli growth = inhibitors of Escherichia coli growth. OD600, 23 h; active compounds read low. OD600 absorbance (test concentration not listed). hit rate 0.21% among 330,000;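 active means OD600 absorbance below the run mean of sample wells minus 3.6 SD, in any replicate, cut at about 0.56 in these data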;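 further: stock transfer was 300 nL into about 60 µL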
# HNF4A DNA FP = change in binding of human HNF4 alpha to DNA. hit rate 0.3% among 360,000. P41235. HNF4a-FITC DNA binding, fluorescence polarization, 1 h. AID 1224865. activity change, % at 10 µM; in the data active means activity change above about 30%, passing the limit was not always enough;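 further: controls were the assay level and a saturating level of protein; the project sought stronger binding though the title names inhibitors; some compounds called inactive have numbers as strong as hits; positive values seem to mean higher polarization but the record does not say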
# LANA-H2A inh = blocks KSHV LANA binding to histone H2A/H2B. Q9QR71. cell-free LANA-H2A/H2B peptide, fluorescence polarization. inhibition, % (concentration not given with the values). hit rate 0.6% among 320,000. AID 2629; in the data active means inhibition mostly above about 10%, no sharp cut-off; inactive means mostly below about 6.7%;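 further: stock transfer was 7.5 nL into about 10 µL; 0% = median of vehicle wells and 100% = median of positive control wells; one replicate is shown; the record names a cut of 25% in any replicate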
# Starred values were filed as active, the others as inactive; i = inactive; . = not tested or not shown.
SMILES,UCH37 inh,B2AR ag,ALR inh,FGF22 binding,Ecoli growth,HNF4A DNA FP,LANA-H2A inh
CNC(=S)NNC(=O)c1cccn(Cc2ccc(Cl)c(Cl)c2)c1=O,4.4,5,23,.,0.74,3.3,2.0
COC(=O)CCC(=O)Nc1ccccc1C(N)=O,1.5,1,-15,.,0.71,0.4,-0.1
Cc1cccc(C(=O)Nc2ccnc(-c3ccncc3)n2)c1,0.2,16,4,i,0.68,-3.6,-4.5
COc1ccc2nccc(/C=C/c3ccnc4ccc(OC)cc34)c2c1,i,-4,-10,i,0.63,-0.4,-5.1
O=C1CSC(c2ccncc2)N1Cc1ccco1 (stereo unspecified),2.2,7,-2,.,0.73,2.2,-1.4
CCCc1nc2sc3ccccc3c(=O)c2c(=O)n1Cc1ccccc1,.,-7,.,i,.,2.6,.
CCOc1ccccc1NC(=O)Cn1nnc(C(=O)NCc2ccco2)c1N,0.6,16,-5,.,0.64,1.7,3.2
COc1ccc(CC(=O)N/N=C/c2cc([N+](=O)[O-])cc(Br)c2O)cc1,.,4,-6,i,.,0.3,4.7
CCC(C)c1ccc(C(C)NC(=S)NC2CCCCC2)cc1 (stereo unspecified),.,-3,4,i,.,-4.8,0.3
CC(=O)Nc1nc2ccc(S(=O)(=O)N3CCCCC3)cc2s1,1.5,4,-4,i,0.73,-3.6,-4.1
CCn1c(COc2ccc(=O)n(-c3ccccc3)n2)nnc1SCc1ccccc1C,3.0,-12,-23,.,0.68,-5.4,-2.0
CN1CCN(C(=O)c2c(NC(=O)c3ccco3)sc3c2CCC(C(C)(C)C)C3)CC1 (stereo unspecified),-0.6,-9,7,.,0.65,2.8,-3.0
COc1ccc(C2c3c(ncn(CCN4CCOCC4)c3=N)Oc3ccc4ccccc4c32)cc1OC (stereo unspecified),6.2,13,-40,.,0.63,-2.3,-3.3
CN1c2ccccc2C2(C)CCCC3=Cc4cc([N+](=O)[O-])cc([N+](=O)[O-])c4OC312 (stereo unspecified),3.5,-2,-4,.,0.75,3.5,-7.7
CCOc1ccccc1NC(=O)CCn1cccc1,-2.2,-1,7,i,0.7,1.8,-4.5
Cc1ccc(NC(=O)c2cccc3c2C(=O)N(C2CCCCC2)C3)cc1,-5.8,2,-3,.,0.71,-2.1,2.7
COc1cccc(CNC(=O)COc2ccc(C(=O)c3ccccc3)cc2)c1,0.5,-13,.,i,0.63,-1.0,3.5
CCC(C)(C)n1nnnc1C(c1ccccc1OC)N1CCSCC1 (stereo unspecified),0.4,-1,0,.,0.61,4.7,-1.7
Oc1ccc(N2CCN(C(c3ccccn3)c3nnnn3C3CCCC3)CC2)cc1 (stereo unspecified),3.0,-9,.,.,0.69,-2.0,-6.1
COc1cc(C)c(/C=C/C(C)=C/C=C/C(C)=C/C(=O)O)c(C)c1C,-1.2,0,.,i,.,-6.0,0.1
O=C(O)c1csc(-n2nc(-c3ccccc3)cc2C(F)(F)F)n1,-6.0,8,2,i,0.73,-5.2,-1.8
Cc1c(C)n(O)c2ccc3nonc3c12,.,13,12,i,.,3.6,-0.1
CCC(C)c1ccccc1NC(=O)COc1ccc(-c2nnco2)cc1 (stereo unspecified),2.4,1,.,i,0.65,-0.2,.
COc1cc(/C=C/C(=O)OCC(=O)NCC2CCCO2)ccc1OCC#N (stereo unspecified),-3.7,-1,3,.,.,2.1,-7.0
CCCCn1nnnc1SCC(=O)Nc1sc2c(c1C#N)CCCC2,2.8,-15,34,.,0.7,-0.2,4.3
Cc1ccnc(Sc2ccc([N+](=O)[O-])cn2)n1,3.4,4,-15,.,0.71,3.3,-3.9
COc1cc([N+](=O)[O-])cc(/C=N/NC(=O)c2ccc(NC(=O)c3ccc(C)cc3)cc2)c1O,.,36,.,i,.,-5.1,.
Cc1ccc(C)c(OCCCC(=O)O)c1,5.0,1,.,.,0.72,0.0,7.5
CCNc1nc(NCC)nc(OCCOC(=O)c2ccccc2)n1,3.0,1,-1,.,0.73,1.3,-6.0
CCCn1c(SCC(=O)Nc2ccc3c(c2)OCCO3)nnc1-c1ccco1,0.9,-24,0,.,0.74,2.6,0.4
Cc1ccc(Nc2oc(C)nc2C#N)cc1,-0.2,-5,35,.,0.65,-2.8,-0.6
Cc1cc(C)c2[nH]c(=O)c(CN(Cc3ccco3)C(=O)C3CCCO3)cc2c1 (stereo unspecified),-4.1,-1,3,.,0.71,-5.3,-1.9
O=C(Nc1ccc2c(c1)CCC2)Nc1ccc(F)cc1F,-0.1,-4,-2,i,0.69,-1.4,3.8
O=C(NC1CCCCC1)N1CCC(c2nc3ccccc3[nH]2)CC1,-2.0,3,-14,i,0.66,-0.9,4.9
COc1ccc(-n2c(NNC(C)=O)nc3sc4c(c3c2=O)CCCC4)cc1,0.5,-3,0,i,0.67,0.3,-2.2
CC(C)Nc1cc(C(C)(C)C)nc2c(-c3ccccc3)cnn12,-230,0,.,.,0.7,2.9,2.5
CC1Cc2ccccc2N1C(=O)COC(=O)C1(c2ccccc2F)CCCC1 (stereo unspecified),1.2,4,-23,.,0.73,-1.3,3.2
CCc1ccc(CN2CCC(n3nccc3NC(=O)c3ccccc3Cl)CC2)cc1,5.3,-5,-7,i,0.73,1.5,-2.4
COc1cc(C(=O)NC23CC4CC(CC(C4)C2)C3)cc(OC)c1OC,7.0,0,-4,i,0.7,0.9,-5.7
COc1ccc(NC(=O)CN(C)C(=O)Cn2cnc3c2c(=O)n(C)c(=O)n3C)cc1,2.1,-6,12,i,0.7,1.7,-0.6
Cc1nc2ccccc2n1C(=O)N(C)C,1.1,3,-1,i,0.66,4.4,4.6
CCC(C)C(CO)NCCCn1cnc(C(=O)Nc2ccc(C)c(C)c2)n1 (stereo unspecified),.,-5,.,i,.,-0.6,.
CC(=O)c1ccc(NC(=O)COC(=O)Cn2cnc3ccccc32)cc1,-0.2,0,-2,i,0.67,0.3,-3.2
Cc1ccccc1/C=N/N1CCN(c2ccccc2)CC1,.,6,13,.,.,0.6,-8.1
COc1ccc(NC(=O)NNC(=O)CCC(=O)Nc2ccccc2Cl)cc1,4.8,-3,.,i,0.68,-6.7,1.0

# Brought forward from above: 4 compounds; new compounds follow.
SMILES,UCH37 inh,B2AR ag,ALR inh,FGF22 binding,Ecoli growth,HNF4A DNA FP,LANA-H2A inh
CCC(C)C(CO)NCCCn1cnc(C(=O)Nc2ccc(C)c(C)c2)n1 (stereo unspecified),.,-5,.,i,.,-0.6,.
CC(=O)c1ccc(NC(=O)COC(=O)Cn2cnc3ccccc32)cc1,-0.2,0,-2,i,0.67,0.3,-3.2
Cc1ccccc1/C=N/N1CCN(c2ccccc2)CC1,.,6,13,.,.,0.6,-8.1
COc1ccc(NC(=O)NNC(=O)CCC(=O)Nc2ccccc2Cl)cc1,4.8,-3,.,i,0.68,-6.7,1.0
CC(=O)c1c(C)[nH]c(C(=O)CN2C(=O)NC(CCc3ccccc3)C2=O)c1C (stereo unspecified),1.0,10,3,.,0.69,1.4,3.0
Brc1ccc(C2=Nc3ccccc3C(c3ccncc3)=NN2)cc1,-2.0,-1,-5,i,0.68,-2.5,-4.7
COc1ccc(CCCC(=O)N/N=C\c2cccs2)cc1,.,6,-1,i,.,3.3,-1.0
c1ccc(CC2CCN(c3nc4ccccc4n4nnnc34)CC2)cc1,-47,-7,-25,.,0.78,0.7,-3.9
Nc1cccc(S(=O)(=O)Nc2ccccc2)c1,.,2,-4,i,.,-1.3,-3.8
C=CCOc1ccc(/C(O)=C2\C(=O)C(=O)N(CCCOC)C2c2ccncc2)cc1 (stereo unspecified),3.9,9,-4,.,0.75,0.6,-6.2
CCc1nc2c(s1)CCc1onc(-c3ccc(Cl)cc3)c1-2,0.6,7,3,i,0.64,1.8,5.1
N#Cc1c(N)nc2c(c1-c1ccc3c(c1)OCO3)CCc1ccccc1-2,i,4,-16,.,0.69,-6.0,1.0
COc1ccc(-c2nc(-c3ccc(Br)o3)no2)cc1,0.9,-1,-9,i,0.73,-1.4,7.1
Cc1ccc(C)c(NC(=S)N2CCC(c3nc4ccccc4s3)CC2)c1,1.5,-11,1,i,0.69,1.2,4.8
Cc1cccc(NC(=O)CNC(=O)COC(=O)C2CC2C)c1C (stereo unspecified),1.6,1,.,i,0.72,1.5,2.1
Nc1nc(CCl)nc(Nc2cccc3ccccc23)n1,3.8,15,13,i,0.66,4.2,2.3
Cc1ccc(S(=O)(=O)N(C(=O)c2ccncc2)c2ccc(OC(=O)c3ccncc3)c3ccccc23)cc1,-2.2,19,-24,i,0.69,-2.3,-3.7
COc1ccc2cc(C3NC(=O)c4ccccc4N3)c(Cl)nc2c1 (stereo unspecified),-2.3,-5,0,.,0.7,-2.6,1.1
COC(=O)C1=C(C)N(CCCCCC(=O)O)C(=O)NC1c1ccccc1 (stereo unspecified),0.1,25,-4,i,0.66,-2.3,5.0

# 3 entries out of the list, ordered by molecular weight, highest first.
SMILES,UCH37 inh,B2AR ag,ALR inh,FGF22 binding,Ecoli growth,HNF4A DNA FP,LANA-H2A inh
N#Cc1c(N)nc2c(c1-c1ccc3c(c1)OCO3)CCc1ccccc1-2,i,4,-16,.,0.69,-6.0,1.0
COc1ccc(-c2nc(-c3ccc(Br)o3)no2)cc1,0.9,-1,-9,i,0.73,-1.4,7.1
Nc1nc(CCl)nc(Nc2cccc3ccccc23)n1,3.8,15,13,i,0.66,4.2,2.3

# Next structures:
SMILES,UCH37 inh,B2AR ag,ALR inh,FGF22 binding,Ecoli growth,HNF4A DNA FP,LANA-H2A inh
Cn1nc(C(=O)Nc2ccc(Cl)cc2)cc1C(=O)Nc1ccc(Cl)cc1,-6.4,-3,-9,i,0.71,0.7,0.4
O=C(Nc1ccc2ncccc2c1)Nc1ccc2ncccc2c1,.,1,.,i,.,-1.2,-1.6
CCC1CN(C(=O)NCc2ccccc2)c2cc(Cl)ccc2O1 (stereo unspecified),0.8,16,-6,i,0.71,4.5,3.4
O=C(Nc1nc2ccccc2s1)C1CCN(C(=O)c2ccco2)CC1,1.7,8,-3,i,0.69,0.9,6.2
O=C(COC(=O)C1CCN(S(=O)(=O)c2ccccc2)CC1)NCCc1ccccc1,2.0,-5,.,i,0.66,1.3,-3.3
Cc1ccc(S(=O)(=O)c2ccc(Cl)cc2)cc1S(=O)(=O)N(C)CC(=O)O,6.0,4,-5,i,0.67,5.0,6.0
COc1ccc(S(=O)(=O)Nc2c(C)n(C)n(-c3ccccc3)c2=O)cc1,3.2,3,-9,.,0.65,-3.5,2.0
Cc1ccnc2nc(C(=O)Nc3nc(-c4ccccn4)cs3)nn12,6.0,12,2,i,0.66,-7.7,-0.4
O=C(O)c1cc2ccccc2c2cc(Br)ccc12,.,2,2,i,.,0.9,2.0
Cc1ccccc1NC(=O)CCCCCN1C(=O)[C@@H]2Cc3ccccc3CN2C1=O,1.9,-5,1,i,0.67,-1.5,-5.9
Cc1ccccc1NC(=O)CN1CCc2ccccc2C1,1.4,1,2,i,0.7,3.8,-0.9
CCCCN(C(=O)c1cc2c(s1)CCC2)c1c(N)n(CCCC)c(=O)[nH]c1=O,0.1,7,-1,.,0.65,-0.2,0.9
C=CCNC(=S)N/N=C/c1ccc(-c2cc(Cl)ccc2Cl)o1,.,1,-6,.,.,1.2,6.3
COc1cccc(NC(=S)N2CCC(N(C)CC3CCCO3)CC2)c1 (stereo unspecified),4.2,-1,-5,.,0.67,2.8,0.8
Cc1cnnc2c1-c1nonc1CC2,1.5,2,-1,.,0.79,0.2,-2.8
CCN(CC)C(=O)C1CCN(Cc2cccc(OCc3ccccc3)c2)CC1,0.3,-1,-1,.,0.74,-3.5,-1.8
COc1ccc(S(=O)(=O)N2CCCC(C(=O)N3CCN(C)CC3)C2)cc1C (stereo unspecified),3.0,-3,-9,.,0.81,2.9,0.0
Cc1nc2ccccn2c1CN(C)C(=O)C1CCC(=O)N(Cc2cccc(F)c2)C1 (stereo unspecified),-4.6,3,-3,i,0.67,1.8,4.3

# From PubChem

# The list is partial; the hit share may differ from the screen's.
